CSC inhib = cancer stem cell viability inhibitors, primary screen, luminescence. inhibition, % at 7.5 µM. 300,000 tested, 1.1% active. cancer stem cell-like cells viability;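 active = mean at 75% or more and at least half the replicates too; tested in HMLE shEcad cells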;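 note: 0% = median of negative and 100% = median of positive control wells; the first replicate is given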
MT1-MMP act inh = blockers of MT1-MMP proenzyme processing, primary screen, HT1080 RFP-PRO-GFP cells, GFP/RFP fluorescence; Matrix metalloproteinase-14 (Homo sapiens), P50281; GFP/RFP ratio fluorescence, overnight; percent of plate control window, DMSO zero; GFP/RFP ratio change, % at 20 µM; 360,000 tested, 0.061% active; AID 651647, 2012;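 active = GFP/RFP ratio change of at least 30% with cell ATP level not reduced by more than half and red fluorescence within 50% of control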; note: strong numbers were not always called active
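Test system: HT1080 cells expressing an RFP-PRO-GFP fluorescent reporter construct / Compound dosing: single-point 20 µM compound, 1% DMSO / Schedule: cells overnight before dosing, compound overnight, 37 °C, 5% CO2 / Evaluation: GFP/RFP fluorescence ratio / Control set: DMSO and RFP-L50D-GFP cell wells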
eIF4H inh = human eIF4H binding inhibitors, primary screen, translation initiation inhibitor project, biochemical, uHTS, fluorescence polarization. Eukaryotic translation initiation factor 4H (Homo sapiens), Q15056. eIF4H fluorescence polarization binding assay. inhibition, % at 35 µM. 290,000 tested, 0.94% active. AID 2012, 2009;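 active = 50% or more with normal probe brightness, or confirmed in later tests; about a fifth of its hits are not listed in these tables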;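 note: calls also rest on retests at 20 µM and on dose response follow-up; 0% = protein and probe with vehicle and 100% = probe without protein; strong numbers were not always called active; many hits fall short of the cut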
Rce1 inh = yeast Rce1p protease inhibitors, primary screen, biochemical, fluorescence, cell-free homogeneous; CAAX prenyl protease 2 (Saccharomyces cerevisiae (strain ATCC 204508 / S288c)), Q03530; yeast membranes, quenched prenylated peptide cleavage fluorescence; calls only; 290,000 tested, 0.27% active; AID 2563, 2010;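 active = fall in fluorescence gain of 50% or more versus controls, with final raw signal at or below 3038400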;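 note: plate controls were neutral control wells for no effect and wells lacking membranes for full effect; tested at 10 µM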
Target sequence (Q03530 whole entry, looked up): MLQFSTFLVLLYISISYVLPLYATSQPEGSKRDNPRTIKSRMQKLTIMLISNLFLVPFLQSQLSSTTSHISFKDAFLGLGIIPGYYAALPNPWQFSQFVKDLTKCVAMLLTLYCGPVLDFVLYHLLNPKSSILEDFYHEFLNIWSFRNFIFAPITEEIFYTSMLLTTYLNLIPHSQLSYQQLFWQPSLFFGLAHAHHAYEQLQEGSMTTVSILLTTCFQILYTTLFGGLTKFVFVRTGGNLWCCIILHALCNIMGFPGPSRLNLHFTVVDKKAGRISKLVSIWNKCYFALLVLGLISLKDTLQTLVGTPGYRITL
PABP polyA inh = PABP poly(A) RNA binding inhibitors, primary screen, biochemical, fluorescence polarization, uHTS | inhibition, % at 35 µM | 290,000 tested, 1% active | AID 2014, 2009;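 active = 50% or more with normal probe brightness, or confirmed in later tests; about a fifth of its hits are not listed in these tables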;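 note: calls also rest on retests at 20 µM and on dose response follow-up; controls were probe without protein and protein plus probe with vehicle; some compounds called inactive have numbers as strong as hits; many hits fall short of the cut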
Target sequence (P11940 whole entry, looked up): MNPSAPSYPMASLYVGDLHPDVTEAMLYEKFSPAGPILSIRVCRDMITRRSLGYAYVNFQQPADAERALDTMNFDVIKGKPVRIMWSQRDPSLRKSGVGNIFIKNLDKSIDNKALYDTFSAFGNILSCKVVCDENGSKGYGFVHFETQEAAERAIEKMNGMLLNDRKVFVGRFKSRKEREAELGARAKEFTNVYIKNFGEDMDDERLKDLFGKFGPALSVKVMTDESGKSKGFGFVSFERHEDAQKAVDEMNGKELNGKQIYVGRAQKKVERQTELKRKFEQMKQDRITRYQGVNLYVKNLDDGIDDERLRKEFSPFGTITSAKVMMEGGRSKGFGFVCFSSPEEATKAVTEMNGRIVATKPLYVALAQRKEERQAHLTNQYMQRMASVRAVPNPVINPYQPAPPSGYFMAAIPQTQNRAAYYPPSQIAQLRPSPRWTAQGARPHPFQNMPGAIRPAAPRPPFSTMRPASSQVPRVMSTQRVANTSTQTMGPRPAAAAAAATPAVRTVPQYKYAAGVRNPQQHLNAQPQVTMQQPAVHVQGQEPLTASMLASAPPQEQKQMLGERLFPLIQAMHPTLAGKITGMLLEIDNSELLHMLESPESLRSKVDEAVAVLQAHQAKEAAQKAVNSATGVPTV
HIV Env fusion = inhibitors of HIV-1 Env-driven cell-cell fusion, primary screen, HeLa-JRFL effector, CEM21 target cells, luciferase. 360,000 tested, 1.1% active. inhibition, % at 12.3 µM;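 active = mean replicate inhibition score of at least 50 and every replicate individually at or above 50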;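 note: 0% = plate neutral controls and 100% = maraviroc near 300 nM; one replicate is shown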
UUG fidelity = modulators of yeast start codon fidelity, primary screen, whole organism, S. cerevisiae, single point, plate reader | S. cerevisiae UUG-firefly luciferase reporter, luminescence/redox ratio | activity score, % at 18.7 µM | 350,000 tested, 0.13% active | AID 602363, 2012;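 active = replicate mean at a twofold rise or more, about +100% in these data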;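 note: firefly luciferase made from a UUG start codon reports start codon fidelity; reporter light over untreated wells divided by growth signal over untreated wells; some hits fall short of that in this replicate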
eIF4H inh retest = further read-out of eIF4H inh, marked with its call; inhibition, %; compound at 20 µM; confirmation average;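 mean of two retest wells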
PABP polyA inh retest = further read-out of PABP polyA inh, marked with its call; inhibition, %; compound at 20 µM; confirmation repeats;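 mean of two retest wells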
MT1-MMP act inh RFP = further read-out of MT1-MMP act inh, marked with its call; RFP signal change, %; measured here: RFP expression control read;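 0 = vehicle wells; hits needed this value within 50% of zero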
An asterisk follows results filed as active; i = inactive; x = not tested or not shown; [ ] = remark or other dose.

SMILES	CSC inhib	MT1-MMP act inh	MT1-MMP act inh RFP	eIF4H inh	Rce1 inh	PABP polyA inh	HIV Env fusion	UUG fidelity	others
COc1ccc(CNc2oc(C)nc2C#N)cc1	-15	-1	2	2	i	1	-68	-7
Cc1c(NS(=O)(=O)c2cc(C(=O)NCc3cccc(Cl)c3)ccc2Cl)c(=O)n(-c2ccccc2)n1C	x	2	4	x	x	x	3	-7
CN1C(=O)c2c(C(=O)Nc3ccc(Oc4ccncc4)cc3)[nH]c(-c3ccccc3)c2C1=O	x	-15	-21	x	x	x	26	6
CC(=O)N1CCN(c2ccccc2NC(=O)c2ccco2)CC1	7	-2	2	5	i	5	-8	-9
O=C1N[C@@H](Cc2ccccc2)COC(=O)[C@H](Cc2ccc(F)cc2)C/C=C\C[C@@H]1CC(=O)N(CCO)Cc1ccccc1	x	-4	-14	x	x	x	-6	30
CCCc1ccc(-c2ccc(/C=C/C(=O)O)cc2)nc1	-16	1	2	1	i	9	61*	x
CC(CC(=O)Nc1nc2ccccc2[nH]1)c1ccccc1 (stereo unspecified)	-8	1	-7	9	i	1	x	-1
CC(=O)N(\C=C/C=C/C=C1\Sc2ccccc2C1=O)c1ccccc1	65	-6	33	67	i	-7	-10	-8	eIF4H inh retest=44;PABP polyA inh retest=39
O=C(Nc1cccc(C(=O)O)c1)/C(=C/c1ccc([N+](=O)[O-])cc1)NC(=O)c1ccccc1	-6	0	3	-9	i	3	-1	-9
CCn1c(SCC(=O)NCc2ccc3c(c2)OCO3)nnc1-c1c[nH]c2ccccc12	-7	-3	-7	-3	i	-7	x	-9
O=C(CSc1nnc(-c2ccco2)n1-c1ccccc1)NCC1CCCO1 (stereo unspecified)	-5	2	1	-9	i	-5	x	-1
COc1cccc(C2NC(=O)N(CCCC(=O)O)C(C)=C2C(=O)OCc2ccccc2)c1 (stereo unspecified)	19	x	x	x	i	x	11	x
O=C(CSc1nnnn1C1CCCCC1)N1CCN(C(=O)c2ccco2)CC1	18	-2	1	-11	i	8	-11	x
CC1CCCCN1S(=O)(=O)c1ccc(S(=O)(=O)N(Cc2ccccc2)Cc2ccco2)cc1 (stereo unspecified)	59	-10	-11	0	i	9	x	-15
COc1cccc(CN(C)CC(=O)NCc2ccc(C)cc2)c1	-7	2	1	10	i	-3	33	-8
CC(C)(C)NC(=O)NC(=O)COC(=O)c1cccc(F)c1	-4	3	-2	0	x	-3	13	-8
O=C(CCCc1ccccc1)N1CCN(C2CCCCC2)CC1	x	3	0	-5	i	-4	-13	-6
O=C(NCCC1=CCCCC1)C(=O)NCC(c1ccco1)N1CCN(c2ccccc2)CC1 (stereo unspecified)	20	0	-9	2	i	-6	7	x
COc1cc2c(cc1O)C(Cc1ccc(O)cc1)[N+](C)([O-])CC2 (stereo unspecified)	-1	9	2	18	i	23	3	-1
CCOC(=O)c1sc(NC(=O)c2cc3n(n2)C(C(F)(F)F)CC(c2ccccc2)N3)c(C(=O)OCC)c1C (stereo unspecified)	-3	2	3	-14	i	-7	x	-10
CCn1c(=O)n(CC)c2cc(N3CCCC3)c(NC(=O)c3ccccc3OC)cc21	48	2	-1	-14	i	-10	18	-15
CN(C(=O)c1cccc(NC(=O)Cc2cccc(NC(=O)C3CCN(C(=O)c4ccccc4)CC3)c2)c1)C1CC1	x	3	6	x	x	x	-51	-4
Cc1ccc(C)c(SCC(=O)OCC(=O)c2ccco2)c1	-6	3	1	13	i	39	x	12
COCCCN1C(=O)C(O)=C(C(C)=O)C1c1ccccn1 (stereo unspecified)	8	-4	-1	-4	i	4	-57	-11
O=C(Nc1ccon1)c1ccc(N2CCCCC2)c([N+](=O)[O-])c1	-6	1	2	14	i	50	-71	x	eIF4H inh retest=31;PABP polyA inh retest=35

Nothing new here: two of the compounds above.
SMILES	CSC inhib	MT1-MMP act inh	MT1-MMP act inh RFP	eIF4H inh	Rce1 inh	PABP polyA inh	HIV Env fusion	UUG fidelity	others
Cc1c(NS(=O)(=O)c2cc(C(=O)NCc3cccc(Cl)c3)ccc2Cl)c(=O)n(-c2ccccc2)n1C	x	2	4	x	x	x	3	-7
CN1C(=O)c2c(C(=O)Nc3ccc(Oc4ccncc4)cc3)[nH]c(-c3ccccc3)c2C1=O	x	-15	-21	x	x	x	26	6

Continuation.
SMILES	CSC inhib	MT1-MMP act inh	MT1-MMP act inh RFP	eIF4H inh	Rce1 inh	PABP polyA inh	HIV Env fusion	UUG fidelity	others
O=C(Nc1nnc(Cc2ccc(Cl)cc2)s1)C1CCCO1 (stereo unspecified)	-8	-2	-5	-13	i	-2	-3	x
CCCCNC(=O)CCC(=O)Nc1ccc2nc(N3CCN(C)CC3)cc(C)c2c1	-12	1	1	-4	i	-2	8	-13
CC(=O)N1CCc2cc(S(=O)(=O)CCC(=O)N3CCc4ccccc4C3)ccc21	7	3	3	2	i	0	-2	9
COc1cc(O)c(C(CCN2CCCC2)c2ccc3c(c2)OCO3)c(OC)c1 (stereo unspecified)	13	1	-2	28	i	1	-14	-15
c1ccc(CCSc2ncnc3nc[nH]c23)cc1	16	-3	-15	-15	i	8	-3	-22
O=C(COC(=O)c1cc(F)cc(F)c1)NCCCc1ccccc1	-5	-4	1	-6	i	12	-4	-11
CN(C)S(=O)(=O)c1cccc(NC(=O)c2ccc3nccnc3c2)c1	-4	-12	-19	-4	i	-2	7	5
Cc1ccc(/C=C/C(=O)OC(C)C(=O)NC2CCCCC2C)o1 (stereo unspecified)	6	0	-9	x	i	x	37	x
N/C(=N\OC(=O)c1ccco1)c1ccccc1	1	0	1	-6	i	-6	-25	-12
O=C(CNC(=S)N(CCCN1CCOCC1)Cc1cccs1)N1CCCCCC1	62	1	4	0	i	-13	7	x
COC(=O)Cn1c(=NC(=O)CSCC(=O)Nc2cc(C)on2)sc2ccccc21	-6	1	1	-13	i	0	8	2
NC(=O)c1cc2ccccc2o/c1=N\NC(=O)c1ccccc1O	5	-1	0	6	i	-8	-5	-6
COc1ccc(C(C)=O)cc1CON=C1CSCc2ccccc21	x	0	2	x	x	x	-2	-9
CCN(CC)S(=O)(=O)c1ccc(C)c(NC(=O)CSc2nc3ccc(C)cc3[nH]2)c1	-18	-10	-5	-6	i	-1	7	-5
CCC(=O)Nc1ccc2c(c1)OC[C@@H](C)N(C(=O)c1ccccn1)C[C@@H](C)[C@@H](OC)CN(C)C2=O	x	-1	6	x	x	x	-1[16.7 µM]	-1
COc1cccc(NC(=O)Nc2ccc3c(c2)nnn3C)c1	-10	-2	-6	3	x	-3	x	-21
Cc1cccc(NC(=O)c2nc[nH]c2C(=O)NCCCCNC(=O)c2[nH]cnc2C(=O)Nc2cccc(C)c2)c1	40	-1	-5	x	x	x	70*	-20
Cn1c(=N)n(CC(O)c2ccco2)c2ccccc21 (stereo unspecified)	-10	-8	-3	20	i	16	x	9
O=C(Nc1ccccc1)c1cc2ccccc2s1	x	-1	-6	x	x	x	-298	-8
CNC(=O)c1c(NC(=O)C2=COCCO2)sc2c1CCC(C)C2 (stereo unspecified)	-3	1	-2	-9	i	-5	x	3
CCOCCCNCC(=O)NCC1CCCCC1	-17	1	2	6	i	4	16	x
O=c1[nH][nH]c(C(F)(F)F)c1/C=N/N1CCOCC1	-5	0	4	-20	i	1	6	x
Cc1ccc(-c2cc(C(=O)Nc3nn[nH]n3)c3ccccc3n2)cc1	-15	0	6	8	i	4	-21	-20
CC(C)c1cccc(C(C)C)c1OC(=O)[C@H]1OC(c2ccc(Br)cc2)=C[C@@H]1c1ccc(Br)cc1	111*	-1	-3	x	x	x	15	-20
COc1cc(/C=N/Nc2nc(Nc3ccccc3)nc(N3CCCCC3)n2)ccc1OCC(=O)O	28	1	3	2	i	0	-38	x
SMILES	CSC inhib	MT1-MMP act inh	MT1-MMP act inh RFP	eIF4H inh	Rce1 inh	PABP polyA inh	HIV Env fusion	UUG fidelity	others
C=CCSc1nc(C)cc(C(=O)OCC)c1C#N	x	-1	-2	-4	i	1	5	7
CCNc1sc(S(C)(=O)=O)nc1S(=O)(=O)c1ccc(Cl)cc1	-10	1	1	-1	i	3	16	x
CCCOc1ccc(N/C=C/C(=O)c2cc(OC)c(OC)c(OC)c2)cc1	23	7	0	-10	i	1	5	0
O=C(OCC(=O)N1CCN(c2ccccc2)CC1)c1cccc([N+](=O)[O-])c1	9	-1	-1	x	i	x	71*	-11
C=CCNc1ncnc2sc(SC)nc12	0	-3	-5	-7	i	2	7	-6
CCNC(=S)NNC(=O)c1ccccc1OC(F)F	-2	-1	-1	0	i	2	-60	-2
CCCc1cc(=O)oc2c(C)c(OCC(=O)NCc3ccccn3)ccc12	-12	0	-1	1	i	-1	6	-20
CC(C)C(=O)Nc1sc2c(c1-c1nc3ccccc3[nH]1)CCCC2	11	-8	-6	-3	i	0	x	x
Cc1ccc(NC(=O)CSc2ccc(C(N)=O)cc2[N+](=O)[O-])cc1C	16	1	-1	15	i	5	-42	-5
Cc1c(C)n2c(SCC(=O)N3CCCCCC3)nnc2[nH]c1=O	2	-3	-1	x	i	x	3	x
CSc1nc(-c2ccc(C)cc2)nc(C(Cl)Cl)n1	72	-28	-30	-4	i	1	x	x
Cc1cc(C)c2c(c1)OC(=O)CC2c1ccc2c(c1)OCO2 (stereo unspecified)	x	1	-2	x	x	x	-14	2
CCCCCC(=O)NC(CC(=O)OC)c1ccc2c(c1)OCO2 (stereo unspecified)	-8	3	4	-9	i	-2	4	x
CC(=O)Oc1ccc2c(c1)Oc1cc(OC(C)=O)ccc1C21OC(=O)c2ccccc21	-1	-8	59	1	x	2	x	x
COc1cc(OC)cc(-c2nc3ccccc3c(=O)n2OC(=O)c2ccccc2C)c1	24	5	9	-4	i	7	7	x
CC(C)[C@H](NC(N)=O)C(=O)Nc1ccc(Oc2ccccc2)cc1	x	1	1	-3	i	-3	-2	x
O=S1(=O)CCOCCN1Cc1ccccc1	5	0	4	9	i	3	-6	10

Not a retest: entries from further up.
SMILES	CSC inhib	MT1-MMP act inh	MT1-MMP act inh RFP	eIF4H inh	Rce1 inh	PABP polyA inh	HIV Env fusion	UUG fidelity	others
C=CCSc1nc(C)cc(C(=O)OCC)c1C#N	x	-1	-2	-4	i	1	5	7
CCNc1sc(S(C)(=O)=O)nc1S(=O)(=O)c1ccc(Cl)cc1	-10	1	1	-1	i	3	16	x
CCCOc1ccc(N/C=C/C(=O)c2cc(OC)c(OC)c(OC)c2)cc1	23	7	0	-10	i	1	5	0
O=C(OCC(=O)N1CCN(c2ccccc2)CC1)c1cccc([N+](=O)[O-])c1	9	-1	-1	x	i	x	71*	-11
C=CCNc1ncnc2sc(SC)nc12	0	-3	-5	-7	i	2	7	-6
CCNC(=S)NNC(=O)c1ccccc1OC(F)F	-2	-1	-1	0	i	2	-60	-2
CCCc1cc(=O)oc2c(C)c(OCC(=O)NCc3ccccn3)ccc12	-12	0	-1	1	i	-1	6	-20
CC(C)C(=O)Nc1sc2c(c1-c1nc3ccccc3[nH]1)CCCC2	11	-8	-6	-3	i	0	x	x
Cc1ccc(NC(=O)CSc2ccc(C(N)=O)cc2[N+](=O)[O-])cc1C	16	1	-1	15	i	5	-42	-5
Cc1c(C)n2c(SCC(=O)N3CCCCCC3)nnc2[nH]c1=O	2	-3	-1	x	i	x	3	x
CSc1nc(-c2ccc(C)cc2)nc(C(Cl)Cl)n1	72	-28	-30	-4	i	1	x	x
Cc1cc(C)c2c(c1)OC(=O)CC2c1ccc2c(c1)OCO2 (stereo unspecified)	x	1	-2	x	x	x	-14	2

Screening data as filed in PubChem.
